Source: PubChem BioAssay (National Center for Advancing Translational Sciences (NCATS))
AmpC nodet inh = AmpC beta-lactamase inhibition, detergent-free assay; Potency, µM (top dose mostly 28.7 µM), without a hit: at the highest dose activity change, negative = inhibition; 71,000 tested, 1.8% active; AmpC nitrocefin hydrolysis, absorbance 480 nm, no detergent; potencies from a single point are estimates; active = falling curve, for most hits resting on a single point; inconclusive = weak or doubtful change; inactive = flat or rising curve; also: % of control where 0% means no effect; about half of the hits show no inhibition at the top dose; a quarter of the inactives give rising signals
Target sequence (P00811 whole entry, looked up): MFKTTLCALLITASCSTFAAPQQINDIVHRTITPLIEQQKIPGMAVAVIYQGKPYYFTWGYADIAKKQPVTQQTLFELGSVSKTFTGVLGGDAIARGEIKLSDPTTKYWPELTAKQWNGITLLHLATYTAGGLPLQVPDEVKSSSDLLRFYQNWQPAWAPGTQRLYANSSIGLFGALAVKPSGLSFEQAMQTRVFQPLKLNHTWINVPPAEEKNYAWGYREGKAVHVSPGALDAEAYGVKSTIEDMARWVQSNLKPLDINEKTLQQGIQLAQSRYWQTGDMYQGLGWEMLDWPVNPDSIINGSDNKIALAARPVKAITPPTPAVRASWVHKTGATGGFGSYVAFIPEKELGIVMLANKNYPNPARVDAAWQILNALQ
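AmpC, 20 mM phosphate pH 7.0; 15 min cpd preinc, RT; start with nitrocefin (800 uM stock); A480 kinetic read, 20 s intervals, 4 min. No-enzyme wells = negative control.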
Starred values were filed as active, the others as inactive; ? = inconclusive; [ ] = another dose, or the depositor's remark. Potency is read from the fitted curve at half-maximal effect.

SMILES	AmpC nodet inh
COc1cc(C2C(C#N)=C(N)Oc3n[nH]c(-c4ccncc4)c32)cc(OC)c1OC (stereo unspecified)	-2%
O=c1c2ccccc2nnn1CSc1nnc2ccccn12	-6%
Cc1csc(Cn2c(CN(C)C)nc3ccccc3c2=O)n1	-8%
Oc1cc(NCc2cccnc2)ccc1-c1nc2ccccc2o1	46%
Cc1ccc(O)c(CN2CCN(c3ccccc3)CC2)c1	-11%
CS(=O)(=O)N(CC(=O)N1CCCCC1)c1sc2c(c1C#N)CCCC2	44%
COCCN(C(=O)c1ccccc1)c1nnc(-c2cccnc2)s1	20%
CNc1nc(C)c(C(=O)OCC(=O)OC)s1	9%
CC1(C(=O)O)CC(C)(C(=O)O)CC(C)(C(=O)O)C1 (stereo unspecified)	3%
CC(=O)Nc1ccccc1C=C1c2ccccc2-c2ccccc21	16%[5.75 µM]
COc1ccc(OC)c(NC(=O)CSC2=NCCS2)c1	2%
COC(=O)c1cccc(NC(=O)c2nn(C(C)C)c(=O)c3ccccc23)c1	42%
CC12CCC(C(=O)NCc3cccnc3)(OC1=O)C2(C)C (stereo unspecified)	-3%
CCOC(=O)N(Cc1ccccc1)C(C(=O)O)C(C(=O)O)N(Cc1ccccc1)C(=O)OCC (stereo unspecified)	-11%
COc1ccccc1NS(=O)(=O)c1cccc2cccnc12	0%
O=C(NCCc1ccccc1)C1CCCN(S(=O)(=O)c2cnc[nH]2)C1 (stereo unspecified)	4%
COc1ncc2nc(-c3ccc(F)cc3)c(=O)n(CCc3ccccc3)c2n1	-3%
CCn1cc(SCC(N)=O)c2ccccc21	-1%
CC(C)(C)NC(=O)C(Cc1ccccc1)NS(=O)(=O)c1cccc2nsnc12 (stereo unspecified)	3%
Cc1ccc2cccc(O)c2[n+]1[O-]	10%
CCCCCn1c(CN2CCN(c3cccc(Cl)c3)CC2)nc2c1c(=O)n(C)c(=O)n2C	140%
Cc1ccc(N2CC(C(=O)Nc3ccc(S(=O)(=O)N4CCOCC4)cc3)CC2=O)cc1 (stereo unspecified)	53%
O=C1CCCN1CCCNc1ccc(S(=O)(=O)N2CCCCC2)cn1	-2%
O=C(CSc1nnc(-c2cccnc2)n1CCc1ccccc1)N1CCCCC1	19%

Part of the list above, with bars between the fields.
Compound | AmpC nodet inh
Oc1cc(NCc2cccnc2)ccc1-c1nc2ccccc2o1 | 46%
Cc1ccc(O)c(CN2CCN(c3ccccc3)CC2)c1 | -11%
CS(=O)(=O)N(CC(=O)N1CCCCC1)c1sc2c(c1C#N)CCCC2 | 44%
COCCN(C(=O)c1ccccc1)c1nnc(-c2cccnc2)s1 | 20%
CNc1nc(C)c(C(=O)OCC(=O)OC)s1 | 9%
CC1(C(=O)O)CC(C)(C(=O)O)CC(C)(C(=O)O)C1 (stereo unspecified) | 3%
CC(=O)Nc1ccccc1C=C1c2ccccc2-c2ccccc21 | 16%[5.75 µM]
COc1ccc(OC)c(NC(=O)CSC2=NCCS2)c1 | 2%
COC(=O)c1cccc(NC(=O)c2nn(C(C)C)c(=O)c3ccccc23)c1 | 42%
CC12CCC(C(=O)NCc3cccnc3)(OC1=O)C2(C)C (stereo unspecified) | -3%
CCOC(=O)N(Cc1ccccc1)C(C(=O)O)C(C(=O)O)N(Cc1ccccc1)C(=O)OCC (stereo unspecified) | -11%
COc1ccccc1NS(=O)(=O)c1cccc2cccnc12 | 0%
O=C(NCCc1ccccc1)C1CCCN(S(=O)(=O)c2cnc[nH]2)C1 (stereo unspecified) | 4%
COc1ncc2nc(-c3ccc(F)cc3)c(=O)n(CCc3ccccc3)c2n1 | -3%
CCn1cc(SCC(N)=O)c2ccccc21 | -1%
CC(C)(C)NC(=O)C(Cc1ccccc1)NS(=O)(=O)c1cccc2nsnc12 (stereo unspecified) | 3%
Cc1ccc2cccc(O)c2[n+]1[O-] | 10%
CCCCCn1c(CN2CCN(c3cccc(Cl)c3)CC2)nc2c1c(=O)n(C)c(=O)n2C | 140%
Cc1ccc(N2CC(C(=O)Nc3ccc(S(=O)(=O)N4CCOCC4)cc3)CC2=O)cc1 (stereo unspecified) | 53%
O=C1CCCN1CCCNc1ccc(S(=O)(=O)N2CCCCC2)cn1 | -2%

Next part
SMILES	AmpC nodet inh
O=C(COc1ccc(Br)cc1)Nc1ccc(-c2nnc(-c3ccco3)o2)cc1	?
CC(=O)Nc1cccc(NC(=O)CCCC(=O)O)c1	-1%
CN1CC[C@@]2(c3cccc(O)c3)Cc3nc4ccccc4cc3C[C@H]2C1	41%
CN(C)c1nc(N)nc(CSc2nc3cc(Cl)ccc3o2)n1	31%
CC1(C)Cc2ccccc2-c2nnc(-c3ccccn3)n21	1%
Cn1c(SCC(=O)NCc2cccs2)nnc1-c1ccncc1	-12%
COc1ccccc1Nc1ccc(C(=O)NC2CCCCC2)cn1	10%
CN1[C@@H](c2ccccc2)CC(=NO)C[C@H]1c1ccccc1	4%[5.75 µM]
CN1[C@H]2CC(=O)C[C@@H]1[C@@H](O)C2	1%[12.8 µM]
N#Cc1c2c(c(N3CCN(CCO)CC3)n3c1nc1ccccc13)CCCC2	27%
O=C(O)CSc1nnc(-c2ccccc2)o1	-12%
COc1ccc(NC(=O)C2CCCNC2)cc1OCC(C)C (stereo unspecified)	18%
CN1CC2CCCC3(C1)C(=O)NC1(CCCCC1)N=C23 (stereo unspecified)	-13%
O=C(NCCc1c[nH]c2ccccc12)c1ccc(S(=O)(=O)NCc2ccco2)cc1	16µM*
c1ccc(-c2nc3ccccc3o2)nc1	-6%
CC1=C(NCCc2ccccc2)CCC1=O	-3%
COc1ccc(-c2nnc(SCC(=O)N3CCCc4ccccc43)o2)cc1OC	127%
CN(c1ccccc1)C(c1ccc(F)cc1)c1nnnn1CC1CCCO1 (stereo unspecified)	30%
CCn1c(=O)c(C(=O)CN2CC(C)OC(C)C2)c(N)n(Cc2ccccc2)c1=O (stereo unspecified)	38%
Cc1csc2nc(CNS(=O)(=O)c3ccc(-c4ccccc4)cc3)cn12	7%
O=C(C1CCN(S(=O)(=O)c2ccc3ccccc3c2)CC1)N1CCN(c2ncccn2)CC1	141%
CCCCNC(=O)c1cc2c(=O)n3cccc(C)c3nc2n1C	17%
CCCn1cnc2c(SCC(=O)O)nc(N)nc21	10%[5.75 µM]
CSc1nn(CCc2ccncc2)c(=S)s1	8%
c1ccc(CCc2nn3c(Cn4cnc5ccccc54)nnc3s2)cc1	19%
c1cnc(Oc2ccc3oc4ccccc4c3c2)nc1	8%
CCOC(=O)CS(=O)(=O)c1ccc2ccccc2c1	-2%
C=CCN=C1CC(C)(C)CC(=O)/C1=C(/O)CCC(=O)OC	3%
COc1ccc(NC(=O)Cc2cccs2)c(OC)c1	-12%
N#CCCC#N	-17%
COC(=O)[C@@H](NC(=O)Nc1ccc2c(c1)OCCO2)C(C)C	2%
O=C(CCn1c(=O)oc2ccccc21)NCc1cccs1	3%
CCCc1cc(C(=O)NCc2ccco2)no1	-5%
Cc1oc2ccc(OCC(N)=O)cc2c1C(=O)OC(C)C	44%
COc1ccc(NC(=O)Cn2cnc3c(cnn3-c3ccc(C)c(C)c3)c2=O)c(OC)c1	65%
CCCNC(=O)CCC(NS(=O)(=O)c1ccc(C)cc1)C(=O)NCCC (stereo unspecified)	-4%
COc1ccc(CCNC(=O)CSc2nc(C)nc3c2oc2ccccc23)cc1OC	96%
CC(C)(CCC(C)(C)c1ccccc1)c1ccccc1	4%[5.75 µM]
CC(=O)C(Sc1ccc2nnc(-c3ccncc3)n2n1)C(C)=O	-5%
COc1cccc(-n2nnc3c(=O)n(Cc4c(F)cccc4Cl)cnc32)c1	?
COc1ccc(NC(=O)N2CCCC3(CCN(C(=O)Oc4ccccc4)CC3)C2)cc1	-5%
O=C(NC(Cc1c[nH]c2ccccc12)c1nnc2n1CCCCC2)c1cccs1 (stereo unspecified)	50%
COc1cc(OC)c(-c2nnc(-c3ccc(OC)c(OC)c3OC)o2)cc1OC	136%
COC(=O)C1=C(C)NC(=O)C1(NC(=O)c1cccnc1)C(F)(F)F (stereo unspecified)	-10%
O=C(CN1C(=O)NC2(CCc3ccccc32)C1=O)c1ccc2c(c1)OCCO2 (stereo unspecified)	8%
O=C(NCc1cccnc1)NC1(C(F)(F)F)Oc2ccc(Cl)cc2O1 (stereo unspecified)	-9%
O=C(CCS(=O)(=O)Cc1ccccc1)NCC1CCCO1 (stereo unspecified)	0%
CCCCCCc1c(O)c2ccccc2[nH]c1=O	-6%
COc1cccc(-n2ccnc2SCC(=O)NCc2ccccc2)c1	24%
Nc1ccc2c(c1)C(=O)N(CC1CCCO1)C2=O (stereo unspecified)	1%
O=C1CC2CS(=O)(=O)CC2N1C1CCCCC1 (stereo unspecified)	-4%
CCOC(=O)c1ccc(NC(=O)C2CCN(S(=O)(=O)c3ccccc3)CC2)cc1	6%
CCOC(=O)N1CCC(NC(=O)c2sc3nc4n(c(=O)c3c2C)CCCC4)CC1	37%
CCOc1ccc2nc(NC(=O)CN3CCN(c4ccccn4)CC3)sc2c1	87%
CN(C)CCCNC(CC(=O)Nc1ccc(Cl)cc1)C(=O)O (stereo unspecified)	-7%
Cc1noc(C)c1CSc1nc2sc(C)c(C)c2c(=O)n1C1CCCC1	15%
O=C(O)C1CC(=O)N(c2ccc(F)c(F)c2)C1 (stereo unspecified)	0%
Cn1c(=O)oc2cc(S(=O)(=O)Nc3ccc4c(c3)OCO4)ccc21	-17%
CN(C)S(=O)(=O)c1ccc(C(=O)Nc2ccccn2)cc1	-4%
COc1ccc(C(=O)Nc2ccc(N3CCN(c4ccc(OC)cc4)CC3)c(C#N)c2)cc1	-1%

Later entries:
SMILES	AmpC nodet inh
NC(=O)CN1C[C@@H](O)CC1=O	18%
O=C(NCc1ccccn1)c1cccs1	-6%
COc1cc(NC(=O)C2CCCC2)c(OC)cc1Cl	16%
CCn1nc(NC(=O)c2ccncc2)c2cc3ccc(C)cc3nc21	66%
Cc1cc(NC(=O)CSc2nc3ccccc3c(=O)n2CCCC(=O)NCc2ccco2)n[nH]1	13%
COc1ccc(CN2CC(C(=O)NCc3cccc(OC)c3)CC2=O)cc1 (stereo unspecified)	28%
COc1ccc(CCNS(=O)(=O)c2cccc(C(=O)O)c2)cc1OC	5%
CCC(=O)Nc1cc2nn(-c3ccc(OC)cc3)nc2cc1C	21%
Cn1c(SCC(=O)O)nc2ccccc2c1=O	-3%
C=CCNc1nnc(C)c2ccccc12	48%
CCOc1ccccc1OCC(=O)NCc1ccco1	18%
CC(CCc1ccccc1)NC(=O)CN1CCN(Cc2ccccc2)C1=O (stereo unspecified)	56%
CC(=O)Oc1cc2c(C(C)=O)coc2c2ccccc12	-4%
CCN(CC)CCN1C(=O)C(O)=C(C(=O)c2sc(C)nc2C)C1c1cccnc1 (stereo unspecified)	6%
CC(C)NC(=O)c1cccc(Cn2cc(Cl)cn2)c1	8%
COC(=O)c1cc2ccsc2n1CC(=O)N(C)c1ccccc1	34%
CC(C)Cn1c(SCC(=O)N2CCN(S(=O)(=O)c3ccccc3)CC2)nc2ccccc21	63%
CCOC(=O)CN1CC23C=CC(O2)C(C(=O)NC2CCCCC2)C3C1=O (stereo unspecified)	6%
O=C(CCC1CCCCC1)Nc1ncn[nH]1	-6%
CCCCC(=O)OCCNC(=O)c1cc2ccccc2oc1=O	19%
COc1ccccc1-c1cc(Nc2ccn[nH]2)ncn1	14%
O=C(NO)c1ccccc1	-20%
CC1(C)Cc2ccccc2-c2nnnn21	-2%
CCN1CCCC1CNC(=O)c1cc2c(-c3cccc(OC)c3)nn(C)c2s1 (stereo unspecified)	55%
Cc1oc2ccccc2c1-c1cn2c(n1)SCC2	24%
CCn1c(C(=O)N2CCC(C(=O)N3CCN(c4ccccn4)CC3)CC2)cc2sccc21	149%
COc1ccccc1C(OC(=O)c1cccs1)C(=O)NCc1ccco1 (stereo unspecified)	4%
OC12CCCCC1C(c1ccc3c(c1)OCO3)N(Cc1ccc(F)cc1)CC2 (stereo unspecified)	55%
CCOC(=O)c1c(-c2ccncc2)csc1N	-6%
Cc1cccc(-n2c(C)nc3cc(C(=O)N4CCC5(CC4)OCCO5)ccc32)c1	75%
CCOC(=O)c1c(N)c(C#N)c2n1CCCCC2	6%
CCOc1ccc2nc(NC(=O)C(CC)Sc3nc(C)cc(=O)[nH]3)sc2c1 (stereo unspecified)	27%
CC1(C)CC(=O)C2=C(C1)Nc1nc(SCCN3CCOCC3)[nH]c(=O)c1C2c1cccs1 (stereo unspecified)	40%
O=C(Nc1ccc(OC(F)F)c(Cl)c1)Nc1ccc2c(c1)OCO2	-17%
CC(C)c1ccc(C2CC(=O)N3CN(C)CSC3=C2C#N)cc1 (stereo unspecified)	4µM*[single pt active]
CC(=O)NC(Cc1ccccc1C)C(=O)NC1CCN(c2c3c(nc4ncnn24)CCC3)CC1 (stereo unspecified)	46%
Cc1cc2oc(=O)cc(CN3CCCCC3C)c2c(C)c1Cl (stereo unspecified)	-18%
COc1ccc(S(=O)(=O)n2cnc3cc(C)c(C)cc32)cc1C	35%
Cc1ccc2nc3c(cc(C#N)c(=O)n3CC3CCCO3)c(=O)n2c1 (stereo unspecified)	-6%
COc1ccccc1OCc1nnc(SCC(=O)Nc2ccc(C)cc2)n1C	41%
O=C(CSc1ncnc2ccccc12)N1CCN(c2ccccc2)CC1	23%
COc1ccc(NC(=O)c2cc3cc(OC)ccc3oc2=N)cc1	13%
CCOC(=O)N1CCC(c2cc(=O)n3[nH]cc(C(=O)OC)c3n2)CC1	-2%
CCOC(=O)N1CCN(C(=O)C2CCN(S(=O)(=O)N(CC)CC)CC2)CC1	22%

These rows are one share of the data. The share of hits here may be higher or lower than overall.
